Source: PubChem BioAssay
VACV mCherry inh: inhibitors of vaccinia virus infection (mCherry reporter signal); Vaccinia virus mCherry reporter infection, fluorescence; about a quarter of the inactives have no number; 310,000 compounds, 0.63% hits; AID 720579; Potency, µM (top dose mostly 36.5 µM), for the others: at the highest dose activity change, negative = inhibition, most hits filed as inhibitors; active = well fitted inhibition curve with a large enough effect; inconclusive = small, poorly fitted or top-dose-only effect; inactive = no such curve, though single readings can be large or run the other way; tested in A549 cells; note: nearly all actives have a fitted effect of over 35% in size; inactives centre near -10
VACV Venus inh: vaccinia inhibition (Venus reporter). Vaccinia virus Venus reporter expression, fluorescence. Potency, µM (series often up to 36.5 µM), for inactives: at the highest dose activity change, negative = inhibition, actives largely listed as inhibitors. 330,000 compounds, 0.46% hits; active means well fitted inhibition curve with a large enough effect; inconclusive means small, poorly fitted or top-dose-only effect; inactive means no such curve, though single readings can be large or run the other way; tested in A549 cells; note: nearly all actives have a fitted effect of over 30% in size; inactives centre near -10
Starred values were filed as active, the others as inactive; i = inactive; ? = inconclusive; . = not tested or not shown; & = joins results of further samples; [ ] = dose if it differs, or a comment. % is set by controls: 0 for no effect and ±100 for the full control effect; potency is the fitted concentration of half-maximal effect.

Start of the data: the first 2 records as a preview:
SMILES	VACV mCherry inh	VACV Venus inh
CS(=O)(=O)Nc1cccc(-c2nc(Nc3ccc(F)cc3)c3ccccc3n2)c1	-12.9%	-6.9%
CN(C)c1ccc(C(CNC(=O)c2ccccc2F)N2CCc3ccccc32)cc1 (centres undefined)	-3.4%	-7.0%

Main list, previewed entries included:
SMILES	VACV mCherry inh	VACV Venus inh
CS(=O)(=O)Nc1cccc(-c2nc(Nc3ccc(F)cc3)c3ccccc3n2)c1	-12.9%	-6.9%
CN(C)c1ccc(C(CNC(=O)c2ccccc2F)N2CCc3ccccc32)cc1 (centres undefined)	-3.4%	-7.0%
CC(=O)c1ccccc1NS(=O)(=O)c1cc2c(cc1C)NC(=O)CO2	-8.8%	3.0%
O=C(Nc1cccc(S(=O)(=O)C(F)F)c1)c1ccc(S(=O)(=O)N2CCCC2)cc1	-0.2%	?
O=C(Cn1cnc2cc([N+](=O)[O-])ccc2c1=O)NC(=O)NCc1ccccc1	-18.2%	-18.7%
ClC(/C=N/n1cnnc1)=C/c1ccccc1	-26.9%	-26.0%
COc1ccc(OCC(O)Cn2cnc(-c3ccc(Br)cc3)c2)cc1 (centres undefined)	-11.3%	-6.1%
NC(=O)CSCc1nc2ccccc2s1	.	-2.9%
CCc1ccc(-n2nc(C)c3c2NC(=O)CSC3c2ccc(C(=O)OC)cc2)cc1 (centres undefined)	-17.8%	-19.9%
S=C(NCc1ccco1)N1CCN(c2nc(-c3ccccc3)cs2)CC1	-21.5%	-18.9%
COc1ccc(SC[C@H](Cc2ccccc2)N2CC[C@@H](C)CCC2=O)cc1	-4.5%	-19.9%&-14.9%
c1ccc2c(c1)nc(NCC1CCCO1)c1nnnn12 (centres undefined)	?	-0.2%
CCc1ccccc1NC(=O)C1=CC(c2cccs2)=NS(=O)(=O)N1C	-7.7%	-1.4%
COc1ccc(Cn2c(SCc3ccc(C)cc3)nc3cc(OC)c(OC)cc3c2=N)cc1Cl	-18.0%	-16.8%
N#Cc1c(NC(=O)CSc2nc(-c3ccco3)cc(C(F)(F)F)n2)sc2c1CCCC2	.	-28.2%
CCOC(=O)c1ccc(CN(Cc2ccccc2)S(=O)(=O)c2cccc([N+](=O)[O-])c2)cc1	-14.0%	-6.2%
COc1cccc(N2CCN(C(=O)c3ccc(CS(=O)c4cccc(Cl)c4)o3)CC2)c1 (centres undefined)	4.6%	-18.7%
CNC(=O)NC(=O)C(C)OC(=O)c1cc2c(s1)CCCCC2 (centres undefined)	-10.5%	-9.4%
CC(C)(C)C(=O)/C=c1\s/c(=C\c2ccc(-c3ccc([N+](=O)[O-])cc3)o2)c(=O)n1CC(=O)NC(N)=O	i	78.2%[activator]
COc1ccc(C(=O)c2ccc(N3CCOCC3)cc2)c(OC)c1	-30.0%	-23.7%
CCCCSc1nc(C)cc(SCC(=O)N/N=C/c2ccccc2)n1	-9.2%	3.9%
COc1ccc(OC)c(CNc2ccc3c(c2)CCC3)c1	-9.7%	-7.8%
Cc1ccc(OCC(=O)Nc2ccc3nc(SCC(=O)N4CCCC4)sc3c2)cc1	8.7%	5.2%
COc1cc(C(=O)OCC(=O)NC23CC4CC(CC(C4)C2)C3)cc(OC)c1OC	i	-15.9%
CC(CNCc1ccc2c(c1)OCO2)NCc1ccc2c(c1)OCO2 (centres undefined)	?	-16.7%
Cc1ccc(C2=NN(C(=O)CSc3nc(N)cc(N)n3)C(c3ccco3)C2)cc1 (centres undefined)	-24.4%	-14.6%
CCOC(=O)c1c(-c2ccccc2)csc1NC(=O)c1nc(S(=O)(=O)CC)ncc1Cl	?	?
CCOc1ccc(S(=O)(=O)NCC2(N3CCCCC3)CCCCC2)cc1	-19.5%	-16.6%
CSc1nnc(-c2cc(-c3ccc(C)cc3)nc3ccccc23)o1	-15.2%	-0.6%
Cc1ccc(S(=O)(=O)N2C[C@H]3[C@H]4C(=O)N(c5ccccc5)C(=O)[C@H]4CC(=O)[C@H]3[C@@H]2c2ccccc2)cc1	30.4%[activator]	6.4%
COc1ccc(NC(=O)CNS(=O)(=O)c2ccc3nc(C)sc3c2)c(OC)c1	.	-23.4%
Cc1cc(C)c(NC(=O)CSc2nnc(SCC(=O)Nc3c(C)cc(C)cc3C)n2N)c(C)c1	i	-14.0%
CC(C)(C)c1ccc(C(=O)NC(=S)NNC(=O)c2cccs2)cc1	-18.4%	?
CCOc1ccc(C(=O)N2CCCC(c3nc(-c4ccc(C)o4)no3)C2)cc1 (centres undefined)	i	-6.7%
CCSc1nc2c([nH]1)c(=O)n(C)c(=S)n2C	i	-10.6%
O=C(Cn1c(=O)oc2cccnc21)Nc1ccccc1Oc1ccc(Cl)cc1Cl	-23.9%	11.7%

An excerpt taken from the entries so far:
SMILES	VACV mCherry inh	VACV Venus inh
Cc1cc(C)c(NC(=O)CSc2nnc(SCC(=O)Nc3c(C)cc(C)cc3C)n2N)c(C)c1	i	-14.0%
CC(C)(C)c1ccc(C(=O)NC(=S)NNC(=O)c2cccs2)cc1	-18.4%	?
CCOc1ccc(C(=O)N2CCCC(c3nc(-c4ccc(C)o4)no3)C2)cc1 (centres undefined)	i	-6.7%
CCSc1nc2c([nH]1)c(=O)n(C)c(=S)n2C	i	-10.6%
O=C(Cn1c(=O)oc2cccnc21)Nc1ccccc1Oc1ccc(Cl)cc1Cl	-23.9%	11.7%

More entries:
SMILES	VACV mCherry inh	VACV Venus inh
O=C(CCCN1CCC(O)(c2ccc(Br)cc2)CC1)c1ccc(F)cc1	i	-10.5%
Cc1c(C(=O)N2CCCC2(C)C(=O)NCC(C)C)oc2ccccc12 (centres undefined)	-12.1%	-2.0%
CCC(=O)Nc1nc(C)c(-c2csc(Nc3ccc(C(=O)O)cc3)n2)s1	?	-16.7%
O=C(C[C@@H]1C[C@H]2c3cc(NC(=O)c4cccnc4)ccc3O[C@H]2[C@H](CO)O1)NCc1ccc(Oc2ccccc2)cc1	?	?
CC(=O)N(Cc1ccccc1C)c1cccc(C)c1C	-11.3%	-2.7%
CCNC(=S)NCc1ccc2c(c1)OCO2	-12.2%	-5.8%
O=C(NCc1nnnn1-c1ccc(F)c(F)c1)C(=O)c1c[nH]c2ccccc12	-18.5%	-10.9%
CCOCCc1nn2c(=O)cc(COC(=O)CNC(=O)c3ccc(C(C)(C)C)cc3)nc2s1	-1.6%	-8.4%
CCOc1ccc(C)cc1S(=O)(=O)n1ccc(C)n1	.	-16.2%
Nc1cc2[nH]c(=O)c3ccccc3c2cc1Br	-14.9%	-0.7%
O=c1cc(-c2ccc(O)cc2)oc2c(-c3c(O)cc(O)c4c(=O)cc(-c5ccc(O)cc5)oc34)c(O)cc(O)c12	2.9%	-4.7%
CCOC(=O)C1CCN(S(=O)(=O)c2ccc3[nH]c(=O)ccc3c2)CC1	-2.8%	8.7%
COc1ccc(NC(=O)C(CCSC)NC(N)=O)cc1Cl (centres undefined)	-11.7%	-13.4%
CN[C@H]1C[C@@H](N)[C@H](O)[C@@H](O[C@@H]2O[C@H](CO)[C@H](O)[C@@H]3OC4(O[C@H]23)O[C@H](C(N)CO)[C@H](O)[C@H](O)[C@H]4O)[C@@H]1O (some centres undefined)	-8.1%	-5.9%
O=C(O)CSCC(=O)N1CCCCC1	-6.4%	-8.2%
CCCc1ccc2oc(C(=O)NCCN3CCCC(O)C3)c(C)c2c1 (centres undefined)	-4.8%	-14.3%
Cc1ccc(C(C(=O)NC2CCCC2)N(Cc2ccccc2)C(=O)c2csnn2)o1 (centres undefined)	i	-4.4%
O=C(c1ccc(F)cc1)N(Cc1ccco1)C1CCS(=O)(=O)C1 (centres undefined)	-14.6%	-7.8%
COc1ccc(N2CC(NC(=O)COc3ccccc3C)CC2=O)cc1OC (centres undefined)	-4.2%	-14.1%
COc1cc(C)c(S(=O)(=O)n2ccc(C)n2)cc1C	-12.4%	?
COc1ccc(OC)c(NC(=O)C23CCC(C)(C(=O)O2)C3(C)C)c1 (centres undefined)	.	-10.8%
O=C(NC1CCCCC1)c1ccc(S(=O)(=O)NCc2cccnc2)cc1	-18.9%	-17.0%
Cc1ccc(NC(=S)N(Cc2ccco2)C2CCN(C(C)C)CC2)cc1	-13.8%	-10.7%
Cc1cc2c(n1-c1ccc(C(=O)NCC(C)c3ccccc3)cc1)CCCC2 (centres undefined)	-3.5%	-17.4%
COc1ccc(S(=O)(=O)NCc2ccc(C(=O)O)cc2)cc1	-15.5%	-0.7%
COc1cc(NC(=O)Cn2c(SCc3ccc(F)cc3)nc3cccnc32)cc(OC)c1	-1.8%	0.0%
Cn1ncc2c(Nc3cccc4ccccc34)ncnc21	i	-15.3%
COc1cccc(NC(=O)CN(C)CC(=O)Nc2ccc3c(c2)OCO3)c1	i	-7.6%
Cc1ccc(NS(=O)(=O)c2cc(OCC(N)=O)c(C)cc2Cl)cc1C	-30.0%	-26.1%
CN(C)CCN(C(=O)COc1ccc(Cl)cc1)c1nc2cc3c(cc2s1)OCO3	-18.4%	-15.3%
CCCCCc1c(O)nc(SCC(=O)NCC2CCCO2)[nH]c1=O (centres undefined)	i	-0.6%
CC(C)C[C@H]1CN(CCCC[C@H]2CNC(=O)C(=O)N2CCc2ccccc2)C(=O)C(=O)N1CCc1ccc(O)cc1	30.8%[activator]	-0.3%
COc1ccc(C2C(C(C)=O)=C(C)Nc3ncnn32)cc1[N+](=O)[O-] (centres undefined)	i	-14.3%
Cc1ccc(N2CCN(C(=O)c3cccs3)CC2)cc1C	-16.8%	-16.2%
Brc1cccc(-c2cnc3n2CCCCC3)c1	.	?
COCCCNC(=S)Nc1cccc(SC)c1	i[7.34 µM]	-2.8%[7.34 µM]
CC(=O)c1ccc(N2CCN(C(=S)Nc3cccc(F)c3)CC2)cc1	-1.8%	-6.3%
Nc1ccc(C(=O)CC(=O)Nc2ccc(Cl)cc2)cc1	-17.6%	-13.1%
CCN1CCN(C(=O)c2sc3ncnc(NCC4CCCO4)c3c2C)CC1 (centres undefined)	-10.3%	-4.4%
CCOc1ccccc1NC(=O)C(Sc1nnc2ccccn12)c1ccccc1 (centres undefined)	i	-18.3%
Cc1ccc(N2CC(C(=O)Nc3ccc4c(c3)OCCO4)CC2=O)cc1C (centres undefined)	7.0%	-13.5%
CC/C(C)=N\Nc1nc(-c2cc3cc(OC)ccc3oc2=O)cs1	?	?
CCC/C(O)=N\S(=O)(=O)c1ccc(N=NN(C)C)cc1	-13.4%	-5.0%
COc1ccc(S(=O)(=O)N2CCN(c3ccccn3)CC2)cc1OC	-17.6%	-12.7%
Cc1cc(C)cc(NCCC#N)c1	-14.4%	-8.3%
CC(C)CNC(=O)C(=O)NCC1CCCN1S(=O)(=O)c1cccs1 (centres undefined)	i	-13.5%
Cc1nn(Cc2cccc(C(=O)Nn3cc([N+](=O)[O-])cn3)c2)c(C)c1[N+](=O)[O-]	-1.7%	3.0%
Cn1c(=O)n(C)c2cc(S(=O)(=O)NCC(=O)O)ccc21	i	-7.9%
O=[N+]([O-])c1cc(F)cc(F)c1Nc1ccc(F)cc1	-9.3%	4.1%
COc1ccc(-n2c(SCC(=O)Nc3nccs3)nc3c(c2=O)SC(C)C3)cc1 (centres undefined)	?	-27.4%
CC1CCCCN1C(=O)/C=C/c1ccccc1[N+](=O)[O-] (centres undefined)	i	-5.2%
Cc1sc(NC(=O)C2C3C=CC(C3)C2C(=O)O)c(C(N)=O)c1-c1ccc(C(C)C)cc1 (centres undefined)	-24.6%	-11.9%
C/C(CS(=O)(=O)c1ccc(Cl)cc1)=N/NC(N)=S	-9.9%	-15.7%
Cc1cc(C)n(C(=O)CNC(=O)c2ccccc2Br)n1	-14.6%	-1.1%
O=C1C2C3C=CC(C3)C2C(=O)N1/N=C/c1cn(Cc2ccc(F)cc2)c2ccccc12 (centres undefined)	-15.9%	-28.6%
CCCOc1ccc(Br)cc1/C=N/NC(=O)c1cc(OC)c(OC)c(OC)c1	-1.2%	-1.0%
COc1ccc2ccc(=O)oc2c1CC=C(C)C	-8.3%&-2.7%	5.4%&-1.5%
CS(=O)(=O)c1ccccc1-c1nc(-c2ccc(C(F)(F)F)cc2)no1	.	-19.2%
CSc1nnc(-c2cccs2)n1-c1ccccc1	-0.7%	0.4%
Cc1c(N=Nc2c(O)n(Cc3ccccc3)c(=O)[nH]c2=O)c(=O)n(-c2ccccc2)n1C	-12.6%	-11.4%

Additional results
SMILES	VACV mCherry inh	VACV Venus inh
COc1ccc(C(=O)NCC(=O)OCC(=O)N2CC(C)CC(C)C2)cc1 (centres undefined)	i	-2.4%
CCOC1=C(N2CC2)C(=O)C(OCC)=C(N2CC2)C1=O	-8.2%	-9.2%
CC1(C)Cc2c(C#N)c(NCC3CCCO3)nc(-c3ccco3)c2CO1 (centres undefined)	.	-0.4%
COC(=O)c1cn(NC(=O)Cc2cccc(OC)c2)c(=O)c2ccccc12	-9.9%	1.1%
O=C1N=C(N2CCCCC2)S/C1=C\c1ccccc1F	-23.9%	-20.9%
CC(=O)c1ccc(OCc2cc(C(=O)N(C)CC3COc4ccccc4O3)no2)cc1 (centres undefined)	-17.6%	-28.5%
O=C(O)CC(=O)Nc1cc(Cl)ccc1O	-13.7%	-8.7%
Cc1oc2cc(O)ccc2c(=O)c1-c1ccccc1	-13.2%	-3.5%
O=S(=O)(N(Cc1ccccc1)[C@@H](CO)Cc1ccccc1)N(Cc1ccccc1)[C@@H](CO)Cc1ccccc1	-5.5%	-26.6%&-3.7%
C[N+]1(CCCCSc2ccc(O)cc2)CCCCC1	-5.9%	-11.9%
O=[N+]([O-])c1ccc(N2CCN(C(=S)NCc3ccc(Cl)cc3)CC2)cc1	-27.1%	?
COc1cccc(S(=O)(=O)Nc2ccc3c(c2)[C@@H]2C[C@H](CC(=O)NCCc4ccccc4)O[C@H](CO)[C@@H]2O3)c1	-20.5%	-11.4%
